UCH37 DUB inh: blocks the human deubiquitinase UCH37. AID 588478. inhibition, % (test concentration not listed). Q9Y5K5. purified proteasome/UCH37, Ub-AMC cleavage fluorescence. 330,000 compounds, 0.33% hits;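 active = mean of two replicates above 20%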;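 also: 0% = compound-free wells with enzyme and 100% = wells lacking proteasome; stock transfer was 100 nL into about 20 µL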
Target sequence (Q9Y5K5 whole entry, looked up): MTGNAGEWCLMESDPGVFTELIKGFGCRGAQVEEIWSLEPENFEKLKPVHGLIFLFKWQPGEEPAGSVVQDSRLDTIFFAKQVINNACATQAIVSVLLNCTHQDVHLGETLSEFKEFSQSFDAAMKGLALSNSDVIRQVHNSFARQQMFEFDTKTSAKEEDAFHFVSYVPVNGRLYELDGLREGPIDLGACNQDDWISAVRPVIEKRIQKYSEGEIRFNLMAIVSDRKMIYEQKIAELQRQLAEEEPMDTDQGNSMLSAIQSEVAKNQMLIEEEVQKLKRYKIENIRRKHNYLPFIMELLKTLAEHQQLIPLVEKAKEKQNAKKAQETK
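Material: Human UCH37 enzyme supplied as purified proteasome complex | Schedule: 30 min compound-proteasome preincubation then 25 min substrate reaction, room temperature | Detection: AMC fluorescence from Ub-AMC cleavage, excitation 355 nm, emission 460 nm | Benchmarks: Wells without proteasome as full block, compound-free enzyme plus substrate as uninhibited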
Ecoli growth: E. coli growth inhibition | Escherichia coli growth, OD600, 23 h; hits give low values | OD600 absorbance (concentration not given with the values) | 330,000 compounds, 0.21% hits | AID 1053175;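 active = OD600 absorbance below the run mean of sample wells minus 3.6 SD, in any replicate, cut at about 0.56 in these data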;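 also: stock transfer was 300 nL into about 60 µL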
Numbers without * were called inactive. Not all compounds are listed, so the mix of outcomes need not match the whole.

SMILES | UCH37 DUB inh | Ecoli growth
O=C(NN=C/C(Cl)=C/c1ccc([N+](=O)[O-])cc1)C(=O)Nc1cccc(C(=O)O)c1 | 15.6 | 0.657
COc1ccc(N2CC(C(=O)NN=Cc3ccc(C)cc3)CC2=O)cc1 (stereo not given) | 2.2 | 0.721
CC(=NNC(=O)CCCC(=O)O)c1c(-c2ccccc2)c2cc(Cl)ccc2[nH]c1=O | 2.4 | 0.693
NC(N)=NN=Cc1ccc(Cl)cc1Cl | 2.1 | 0.562
COc1cccc(Sc2ccccc2C=NNC(N)=O)c1 | 2.2 | 0.76
Fc1ccc(Br)cc1C=Nn1cnnc1 | -1.6 | 0.656
C=CCSC(=Nn1cnc2ccccc2c1=O)N1CCCCC1 | 4.6 | 0.747
COc1cccc(C=Nc2sc(Cc3ccccc3)c(C)c2C(N)=O)c1O | 1.9 | 0.692
CCOc1cc(C=NN=Cc2ccc(O)c(OCC)c2)ccc1O | 2.8 | 0.684
C=CCNC(=S)NN=Cc1cccc([N+](=O)[O-])c1 | 3.7 | 0.659
CN(C)CCCNCCCNC(=O)C(=NO)c1ccccn1 | 1.0 | 0.663
COc1ccc(C=Nn2cnnc2SCCO)cc1OC | -4.9 | 0.753
C=CCN1C(=O)/C(=C/c2ccc(O)c(OC)c2)SC1=Nc1nccs1 | 4.7 | 0.688
Brc1ccc(C=NN2CCN(C3c4ccccc4-c4ccccc43)CC2)s1 | 4.5 | 0.815
COc1cc(C=NNC(=O)C(=O)NCC2CCCO2)ccc1O (stereo not given) | 9.4 | 0.661
O=C(NN=Cc1ccc([N+](=O)[O-])s1)C(O)c1ccccc1 (stereo not given) | 10.9 | 0.652
COc1ccccc1NC(=O)COc1ccc(C=Nn2cnnc2)cc1OC | -1.0 | 0.688
CC(=NNC(=O)c1ccc(N(C)C)cc1)c1ccc(C)c(C)c1 | 5.3 | 0.648
CCCCCC(=O)NN=Cc1ccc(N(C)C)cc1 | -226.0 | 0.716
COc1ccc(C=NNc2ncnc3sc4c(c23)CCCC4)cc1O | 1.8 | 0.71
FC(F)(F)c1cccc(NN=Cc2ccccc2)c1 | 3.2 | 0.689
COc1ccc(C=NNC(=O)c2cc3c(ccc4ccccc43)o2)cc1OC | -444.3 | 0.579
COc1cc(C=NNC(=O)C2CCN(CC(O)COCc3ccccc3)CC2)cc(OC)c1OC (stereo not given) | 0.5 | 0.707
Cc1ccc2nc(Nc3ccccc3)c(C=NO)c(=O)n2c1 | 1.9 | 0.693
Cn1cnnc1SCc1ccc(C(=O)NN=C(CCC(=O)O)c2ccc(C(C)(C)C)cc2)cc1 | -0.9 | 0.69
COc1ccc(C=NOC(=O)Nc2ccccc2OC)cc1 | 3.8 | 0.697
Cc1ccc(C=c2sc3nc(-c4cccs4)nn3c2=O)o1 | 1.6 | 0.794
Cn1ncc2c(=O)n(N=Cc3ccccc3)cnc21 | 1.9 | 0.733
CC(CC(=O)Nc1ccccc1C#N)=NNC(=O)c1ccncc1 | -0.2 | 0.717
Cc1cc[n+](-c2[nH]c(=O)sc2C=N/N=C(\[O-])c2ccccc2)cc1 | 16.5 | 0.636
O=C(NN=C1CC2C=CCC12)c1ccco1 (stereo not given) | 0.6 | 0.691
COc1ccc(C=NNC(=O)COc2ccccc2-c2ccccc2)cc1 | 1.4 | 0.753
CC(C)c1ccc(C=NNC(=O)CC(=O)NC2CCCCC2)cc1 | 4.5 | 0.694
O=C(Cc1ccc([N+](=O)[O-])cc1)NN=Cc1cccs1 | 3.8 | 0.718
O=C(NN=Cc1ccccc1F)c1ccc(-c2ccccc2)cc1 | 4.9 | 0.745
COc1ccccc1NCC(=O)NN=C(C)c1ccc(Br)s1 | 3.4 | 0.675
O=[N+]([O-])c1cc(-c2ccc(C=Nn3cnnc3)o2)ccc1Cl | 3.5 | 0.667
CCN(CC)C(=O)C1CCCN(c2ccc([N+](=O)[O-])cc2C=NNC(=O)c2cccc(Br)c2)C1 (stereo not given) | 3.8 | 0.699
CC(C(=O)NN=Cc1ccc(N(C)C)c(Br)c1)N(c1ccccc1)S(C)(=O)=O (stereo not given) | 1.4 | 0.759
Cc1ccccc1OCC(=O)NN=Cc1ccc(N(C)C)cc1 | -88.1 | 0.728
CC(=O)Nc1ccc(NC(=NS(=O)(=O)c2ccccc2)c2ccccc2)cc1 | -0.1 | 0.643
O=C(NN=Cc1cccn1-c1cccc(C(=O)O)c1)Nc1ccccc1 | 2.5 | 0.627
Cc1oc(N=Cc2ccc(Cl)cc2)c(C#N)c1C | 5.1 | 0.638
COCC(=O)NN=Cc1ccccc1OC/C=C/c1ccccc1 | 1.9 | 0.729
O=C(NN=Cc1cn(-c2ccccc2)nc1-c1cccnc1)c1ccc(F)cc1 | -2.0 | 0.649
Cc1cc(C=NNC(=O)Cn2c3ccccc3c(=O)c3ccccc32)c(C)n1-c1ccccc1 | -55.9 | 0.709
O=C(NN=C/C=C/c1ccccc1)c1cccs1 | 12.9 | 0.613
O=[N+]([O-])c1cc(S(=O)(=O)N2CCCC2)ccc1NN=Cc1ccncc1 | 7.3 | 0.749
O=C(COc1ccccc1)NCC(=O)NN=C/C=C/c1ccccc1 | 1.8 | 0.673
COc1ccc(C2CC2C(C)=NOC(=O)c2cccs2)cc1 (stereo not given) | 0.2 | 0.662
New compounds follow:
SMILES | UCH37 DUB inh | Ecoli growth
CC(=NO)c1cccc(N2Cc3ccccc3C2)c1 | 2.3 | 0.706
O=C(C=C(O)c1ccccc1)C(=O)NNC(=O)c1ccccc1 | 15.1 | 0.652
NC(=NOC(=O)Oc1ccccc1)c1cccc([N+](=O)[O-])c1 | 4.7 | 0.659
CC(=NNC(=O)CNc1cccc2ccccc12)c1ccccc1 | 1.1 | 0.74
CCC(=NNC(=O)CCC(=O)NCc1ccccc1)c1ccc(O)cc1 | 0.9 | 0.706
O=C(NN=Cc1ccc(O)cc1)c1cc(C2CC2)[nH]n1 | 1.5 | 0.697
COc1ccc(C(=O)NN=Cc2cccc3cccnc23)cc1 | 4.9 | 0.743
Cc1ccc(O)c(C=NNC(=O)c2[nH]ncc2Br)c1 | -7.7 | 0.678
CC(=NNc1c([N+](=O)[O-])c(C)nn1C)c1ccc(F)cc1F | 0.9 | 0.703
CC(=NNC(=O)CNC(=O)c1ccc(F)cc1)c1ccco1 | 0.6 | 0.743
O=C(CNC(=O)c1ccc2c(c1)OCCO2)NN=Cc1cccc(Br)c1 | 2.3 | 0.67
COc1ccccc1C(=O)NCC(=O)NN=Cc1ccc2c(c1)OCO2 | 2.5 | 0.673
COc1ccccc1C(=O)ON=C1CCCc2c1ccc(OC)c2[N+](=O)[O-] | 4.5 | 0.662
Clc1cccc(C=NNc2nnc(Cl)c3ccccc23)c1 | 4.6 | 0.689
CCOC(=O)C(=O)NN=Cc1ccc(F)cc1 | 4.7 | 0.646
Oc1cccc(C=NNc2ncnc3c2ncn3Cc2ccccc2)c1 | 10.1 | 0.716
CC(CC(=O)NCc1ccc(Cl)cc1)=NNC(=O)c1ccccc1F | 1.1 | 0.696
Cc1ccc(C(=O)NN=Cc2cccs2)cn1 | 1.6 | 0.7
CNC(=S)NN=Cc1ccc(OCc2ccccc2)c(Br)c1 | -22.9 | 0.665
Cc1ccc(-c2n[nH]c(=S)n2N=Cc2ccc(C)o2)cc1 | 3.9 | 0.585
COc1cccc(C=NNC(=S)Nc2cccc(S(=O)(=O)N(C)C)c2)c1 | -0.3 | 0.719
CCOc1cc(C=NNC(=O)c2ccncc2)ccc1OC(=O)c1ccc([N+](=O)[O-])cc1 | 2.0 | 0.704
Cc1ccc(N2CCN(N=C/C=C/c3ccccc3)CC2)cc1 | 3.1 | 0.651
O=c1[nH]c(NN=Cc2ccccc2)nc2ccccc12 | -6.7 | 0.69
S=c1[nH]nc(C2CCCCC2)n1N=Cc1cccc(Cl)c1Cl | 4.0 | 0.685
CCOC(=O)c1c(-c2ccc(C)cc2)csc1N=C(C)C1=C(O)c2ccccc2C1=O | 7.7 | 0.631
COc1cc2cc(C(=O)NN=Cc3ccccc3Cl)[nH]c2cc1OC | -66.6 | 0.636
Cc1ccc(-c2cc(C(=O)NN=Cc3ccccc3O)n[nH]2)o1 | -19.6 | 0.655
CCOC(=O)NN=C(C)c1ccc(N2C(=O)C3CCCCC3C2=O)cc1 (stereo not given) | 0.9 | 0.688
CC(=NNC(=O)c1cc(Br)ccc1O)c1cccs1 | 0.7 | 0.673
Br/C(C=NNc1ccc2nncn2n1)=C\c1ccccc1 | 4.8 | 0.652
COc1c(OC(C)=O)ccc(C=NNC(=O)c2ccc(Br)cc2)c1[N+](=O)[O-] | 6.2 | 0.685
O=C(NN=C/C=C/c1ccc2c(c1)OCO2)C1COc2cc3ccccc3cc2O1 (stereo not given) | -4.5 | 0.742
O=C(CN1CCN(Cc2ccccc2Cl)CC1)NN=C/C=C/c1ccco1 | 10.4 | 0.633
O=c1c(C=NNS(=O)(=O)c2ccccc2)coc2ccc(Cl)cc12 | 2.7 | 0.682
COc1ccc(C=NNS(=O)(=O)c2ccc(F)cc2)cc1COc1cc(F)ccc1[N+](=O)[O-] | 0.5 | 0.669
COc1ccc(CC(O)=C(C#N)c2nc3ccccc3s2)cc1 | 7.9 | 0.669
CSc1ccc(C=NNC(=O)CN2CCN(Cc3ccc(C)cc3)CC2)cc1 | 2.5 | 0.662
COc1ccc(C(=O)NN=Cc2ccc(OC)c(CN3CCc4cc(OC)c(OC)cc4C3C)c2)cc1 (stereo not given) | 4.2 | 0.699
Cc1ccc(Cl)cc1NC(=O)COC(=O)c1ccc(COc2ccc3c(C)cc(=O)oc3c2)cc1 | -12.3 | 0.639
CCc1cc(C(Cc2ccc3ccccc3n2)=NO)c(O)cc1O | 3.5 | 0.766
COCc1c(C(=O)NN=Cc2ccco2)nnn1-c1nonc1N | 4.9 | 0.704
COc1ccc(C=Nn2c(-c3cc(C)[nH]n3)n[nH]c2=S)cc1OC | 6.5 | 0.63
Cc1cc(C)c(S(=O)(=O)NN=Cc2ccc([N+](=O)[O-])o2)c(C)c1 | 3.5 | 0.506*
COC(=O)c1ccc(C=Nn2c(C)nc3ccccc3c2=O)cc1 | 3.4 | 0.656
NC(CSc1nc(-c2ccccc2)c(-c2ccccc2)o1)=NO | -0.4 | 0.72
Fc1ccc(C=NN2CCN(Cc3ccccc3)CC2)cc1 | 2.1 | 0.633
O=C(NN=Cc1cc2cc3c(cc2nc1Cl)OCO3)c1ccncc1 | -62.6 | 0.63
CC(=NNc1nc(C)cc(C)n1)c1ccc(C)o1 | 8.0 | 0.65
C[C@H](NC(=O)[C@@H]1Cc2ccccc2CN1)C(=O)NCC1CCC(C(=O)O)CC1 (stereo not given in full) | -0.1 | 0.66
The results go on:
SMILES | UCH37 DUB inh | Ecoli growth
COc1cc(C=NNC(=O)C(C)(C)O)ccc1OC/C=C/c1ccccc1 | -4.6 | 0.68
O=C(NN=Cc1ccc(Br)s1)c1c[nH]c2ccccc12 | 6.1 | 0.551
CCOc1ccc(C=NNC(=O)C2(O)c3ccccc3-c3ccccc32)cc1 | 1.8 | 0.678
CCOc1ccc(C(C)=NNC(=O)c2nnn(-c3nonc3N)c2-c2cccs2)cc1 | -217.2 | 0.686
Nc1nccnc1C(=O)NN=Cc1ccco1 | 5.3 | 0.674
CCOC(=O)C1=C(C)N=c2sc(=Cc3ccc(OC(C)=O)c(OCC)c3)c(=O)n2C1/C=C/c1ccccc1 (stereo not given) | 3.5 | 0.794
CC(=NNC(=O)CNS(=O)(=O)c1ccc(C)cc1)c1cccc([N+](=O)[O-])c1 | 0.1 | 0.675
O=C(NN=Cc1cccc([N+](=O)[O-])c1)C1CC(=O)N(c2ccc(Cl)cc2)C1 (stereo not given) | -3.6 | 0.625
O=C(NN=Cc1ccc([N+](=O)[O-])o1)c1ccccc1NS(=O)(=O)c1cccs1 | 16.2 | 0.62
COc1cc(C=NNc2ccc([N+](=O)[O-])cc2S(=O)(=O)N2CCOCC2)cc(OC)c1OC | 6.5 | 0.654
Cc1cccc(NC(=S)NN=C2CCCCc3ccccc32)c1 | 0.9 | 0.711

As a working copy, two of the compounds above:
SMILES | UCH37 DUB inh | Ecoli growth
COc1cc(C=NNC(=O)C(C)(C)O)ccc1OC/C=C/c1ccccc1 | -4.6 | 0.68
O=C(NN=Cc1ccc(Br)s1)c1c[nH]c2ccccc12 | 6.1 | 0.551

Grouped by structure: the compounds so far containing a Cl atom.
SMILES | UCH37 DUB inh | Ecoli growth
O=C(NN=C/C(Cl)=C/c1ccc([N+](=O)[O-])cc1)C(=O)Nc1cccc(C(=O)O)c1 | 15.6 | 0.657
CC(=NNC(=O)CCCC(=O)O)c1c(-c2ccccc2)c2cc(Cl)ccc2[nH]c1=O | 2.4 | 0.693
NC(N)=NN=Cc1ccc(Cl)cc1Cl | 2.1 | 0.562
O=[N+]([O-])c1cc(-c2ccc(C=Nn3cnnc3)o2)ccc1Cl | 3.5 | 0.667
Cc1oc(N=Cc2ccc(Cl)cc2)c(C#N)c1C | 5.1 | 0.638
Clc1cccc(C=NNc2nnc(Cl)c3ccccc23)c1 | 4.6 | 0.689
CC(CC(=O)NCc1ccc(Cl)cc1)=NNC(=O)c1ccccc1F | 1.1 | 0.696
S=c1[nH]nc(C2CCCCC2)n1N=Cc1cccc(Cl)c1Cl | 4.0 | 0.685
COc1cc2cc(C(=O)NN=Cc3ccccc3Cl)[nH]c2cc1OC | -66.6 | 0.636
O=C(CN1CCN(Cc2ccccc2Cl)CC1)NN=C/C=C/c1ccco1 | 10.4 | 0.633
O=c1c(C=NNS(=O)(=O)c2ccccc2)coc2ccc(Cl)cc12 | 2.7 | 0.682
Cc1ccc(Cl)cc1NC(=O)COC(=O)c1ccc(COc2ccc3c(C)cc(=O)oc3c2)cc1 | -12.3 | 0.639
O=C(NN=Cc1cc2cc3c(cc2nc1Cl)OCO3)c1ccncc1 | -62.6 | 0.63
O=C(NN=Cc1cccc([N+](=O)[O-])c1)C1CC(=O)N(c2ccc(Cl)cc2)C1 (stereo not given) | -3.6 | 0.625

High-throughput results: PubChem, ICCB-Longwood Screening Facility, Harvard Medical School
